Source: PubChem (several laboratories)
Mtb hypoxia rep = Mtb hypoxia fluorescent reporter inhibition; M. tuberculosis hypoxia-regulated fluorescent reporter, fluorescence; fluorescence inhibition, % (concentration not given with the values); hit rate 0.1% among 300,000; AID 1159583;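 active = 35 to 45% if threefold the growth effect, above 45% if 1.5-fold the growth effect; inactive = the rest, general growth blockers included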;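 also: wells of about 50 µL received 100 nL stock; 0% = vehicle wells and 100% = reference inhibitor wells; whole bacteria with a GFP reporter of the hypoxia response; strong numbers were not always called active; many hits fall short of the cut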
PrP UTR inh = inhibition of PrP 5' UTR reporter expression | inhibition, % (no concentration beside the values) | hit rate 0.35% among 340,000 | AID 488862 | cell-based PrP 5' UTR mRNA reporter, plate reader;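 active = every replicate at 50% or more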;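 also: 0 = median of the neutral control wells; tested in H4 reporter cells; numbers are from one replicate; inactives centre near -14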
Sa ugtP lethal = compounds lethal to S. aureus RN4220 ugtP deletion mutant. AID 1259309. growth inhibition, % (no concentration beside the values). hit rate 0.54% among 330,000. OD600 growth, 16 h; some inactives read as strong as hits;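 active = z-score under -3 and OD600 up to 0.15 on both plates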;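 also: plate controls were untreated wells for no effect and antibiotic for full effect; wells of about 80 µL received 100 nL stock; the first replicate is given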
BJeLR viability = BJeLR cell viability loss | BJeLR (HRASV12) viability, CellTiter-Glo ATP luminescence, 48 h; reference of the scale not given here | AID 1554 | hit rate 0.17% among 300,000 | inhibition, % (test concentration not listed);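 active = replicate mean above 50%; inconclusive = above 50% but judged a plate artefact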;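 also: 50 nL library stock added to about 25 µL; numbers are from one replicate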
Sa RN4220 lethal = kills Staphylococcus aureus RN4220 | S. aureus RN4220 growth, OD600, 16 h | inhibition, % (no concentration beside the values) | hit rate 0.33% among 330,000 | AID 1259311;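 active = z-score of -3 or lower and OD600 up to 0.18 on both plates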;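 also: plate controls were untreated cells for no effect and reference antibiotic for full effect; stock transfer was 100 nL into about 80 µL; one replicate is shown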
Bead autofluor = compound fluorescence in toxin protease inhibitor counterscreen | compound autofluorescence counterscreen, microsphere flow cytometry; stronger effect = higher value | fluorescence intensity (concentration not given with the values) | hit rate 3.1% among 360,000;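 active = at least 3 SD above the mean of all compounds, about 16000 in these data; inconclusive = too few beads counted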;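 also: 100 nL of 1 mM stock went into each well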
Mtb hypoxia rep growth = recorded beside Mtb hypoxia rep, whose call it bears; growth inhibition, %; measured here: M. tuberculosis growth (absorbance);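 0% = vehicle and 100% = reference antibiotic; read after six days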
* marks the source's active call; other numbers are inactive results; ? = inconclusive; . = no result given; & = joins results of further samples. Rows are unselected; about 4% have a hit in one of these screens.

Structure	Mtb hypoxia rep	Mtb hypoxia rep growth	PrP UTR inh	Sa ugtP lethal	BJeLR viability	Sa RN4220 lethal	Bead autofluor
NS(=O)(=O)c1ccc(CNC(=O)CC23CC4CC(CC(C4)C2)C3)cc1	18	8	-39	-6	-3	-11	2732
Cc1cc(C)c(S(=O)(=O)ON2C(=O)c3ccccc3C2=O)cc1C	-8	3	-17	2	-5	-2.4	23962*
CC(C)C[C@H]1C(=O)N2CCCC2[C@]2(O)O[C@](NC(=O)[C@@H]3C=C4c5cccc6[nH]cc(c56)CC4N(C)C3)(C(C)C)C(=O)N12 (some centres not stated)	.	.	-10	.	-6	.	4235
CCSc1nnc(NC(=O)c2nc3nc(C)cc(C)n3n2)s1	-8	2	14	3	-2	5.7	4352
Cc1noc(NS(=O)(=O)c2ccc(NC(=O)Nc3ccc(Cl)c(Cl)c3)cc2)c1C	25	8	-24	-26	-3	-9.5	3300
O=C(NCc1ccc(F)cc1)C(=O)NCC1OCCN1C(=O)c1ccc(Cl)cc1 (configuration not stated)	-2	9	-25	-5	5	-4.3	5797
O=C(Cn1nc(-c2ccccc2)ccc1=O)N1CCC2(CC1)OCCO2	-4	7	-9	0	0	1.6	4402
COc1ccc(C(=O)N/C(=C/c2cccs2)C(=O)NC(C)(C)C)cc1OC	10	-5	-32	4	.	7.4	4194
COc1cccc(-c2noc(N)c2C#N)c1	5	-1	2	15	-6	29	7928
CCCCCC1(C(=O)OCC)CC(CSC(=N)N)OC1=O (configuration not stated)	14	3	-27	3	-3	-0.7	2250
COc1ccccc1NC(=O)c1c(N=Cc2cccc([N+](=O)[O-])c2)cnn1C	-15	2	-25	-13	-8	-5.0	5818
CCOc1ccc(C(O)c2nccn2C)cc1 (configuration not stated)	6	5	-5	8	-6	5.4	2911
COc1cc(O)c(C(C)=O)c(CC(=O)O)c1	.	.	-16	.	3	.	4372
Cn1nc(C(=O)NNC(=O)c2ccccc2F)c2ccccc2c1=O	-11	2	3	1	.	1.9	5135
O=C(c1cccc(S(=O)(=O)N2CCc3ccccc32)c1)N1CCN(CCO)CC1	11	4	-15	6	.	5.7	4214
CN(C)c1cccc(NC(=O)c2ccco2)c1	15	1	43	7	3	1.4	3470
Cc1nnc(NC(=O)c2cccc(NC(=O)C(C)C)c2)s1	-6	7	-2	-8	3	1.3	3003
CCCCn1c(N)c(N(CCC(C)C)C(=O)CCN2C(=O)C3CC=CCC3C2=O)c(=O)[nH]c1=O (configuration not stated)	1	6	-22	13	-6	0.2	5132
CCOC(=O)C1CCN(c2c(NCCCN(C)C3CCCCC3)c(=O)c2=O)CC1	-8	1	-16	-16	-7	0.9	6147
CCOc1ccc(CNCCc2ccc3c(c2)OCO3)cc1	2	-1	-10	6	-9	3.2	3884
Cc1c(C(=O)Nc2ccc(S(=O)(=O)Nc3ncccn3)cc2)oc2ccc(Cl)cc12	1	3	4	-7	-2	-0.3	5509
O=C(CSc1nnc(-c2cccnc2)o1)Nc1ccccn1	13	7	-47	-5	11	-15	3287
Nc1ccc2nn(-c3cc([N+](=O)[O-])ccc3O)nc2c1	7	8	-16	-4	11	2.2	3710
COC(=O)Cc1[nH]c(Cl)nc1C(N)=O	11	-5	.	-2	-5	1.0	.

Whole records as entered above:
Cc1nnc(NC(=O)c2cccc(NC(=O)C(C)C)c2)s1 is listed with Mtb hypoxia rep = -6; Mtb hypoxia rep growth = 7; PrP UTR inh = -2; Sa ugtP lethal = -8; BJeLR viability = 3; Sa RN4220 lethal = 1.3; Bead autofluor = 3003
CCCCn1c(N)c(N(CCC(C)C)C(=O)CCN2C(=O)C3CC=CCC3C2=O)c(=O)[nH]c1=O (configuration not stated) is listed with Mtb hypoxia rep = 1; Mtb hypoxia rep growth = 6; PrP UTR inh = -22; Sa ugtP lethal = 13; BJeLR viability = -6; Sa RN4220 lethal = 0.2; Bead autofluor = 5132

Next part:
Structure	Mtb hypoxia rep	Mtb hypoxia rep growth	PrP UTR inh	Sa ugtP lethal	BJeLR viability	Sa RN4220 lethal	Bead autofluor
CC(=O)c1cccc(NC(=O)N2CC(C)OC(C)C2)c1 (configuration not stated)	8	13	1	1	10	0.5	5034
O=C(Nc1nnc(SCc2cccc3ccccc23)s1)C1COc2ccccc2O1 (configuration not stated)	9	9	-24	1	9	9.2	2498
O=C(O)C1C2CCC(CC2)C1C(=O)O (configuration not stated)	3	8	-23	4	.	2.5	3903
CC(C(=O)Nc1nc2ccc(F)cc2s1)N1C(=O)C2CC=CCC2C1=O (configuration not stated)	2	20	.	-4	.	3.5	.
CNCC[C@H](Oc1cccc2ccccc12)c1cccs1	.	.	3	.	5&11	.	4617
Cc1oc(/C=N/NS(=O)(=O)c2ccccc2)cc1Br	.	.	-26	.	-16	.	2582
CN(C)CCCN(Cc1ccc2c(c1)OCO2)C(=O)NC1CCCCC1	7	10	-7	6	1	2.1	5363
NC(=O)NOCc1c(F)cccc1Cl	-10	-5	-8	1	2	-2.3	4482
Cc1ccc2nc(/C(C#N)=C/c3ccc(-c4ccccc4C(=O)O)o3)[nH]c2c1	3	-2	-17	6	-10	2.3	4076
Cc1cccc(CCNC(=O)CCc2nc(-c3ccccc3F)no2)c1	.	.	-7	-15	18	-6.4	2542
CSc1nnc(Cn2c(=O)sc3ccccc32)n1CCc1ccccc1	.	.	-4	7	7	6.7	4323
CC1CCN(CCC(=O)Nc2ccc(Cl)cc2)CC1	14	-3	-10	6	13	1.1	4424
Cc1cccc(-n2cc(CN3CCCN(C=O)CC3)c(-c3cccc(F)c3)n2)c1	10	-6	-6	0	-5	3.2	5475
CCn1c(=O)cc(SCC(=O)Nc2ccc3c(c2)OCO3)c2ccccc21	4	7	-17	-6	-11	3.7	9570
O=C(C1CC(c2ccccc2O)=NO1)N1CCC2(CC1)OCCO2 (configuration not stated)	3	10	-28	2	-3	2.7	20077*
Cc1ccc(Nc2nc(Cl)nc(NC3CCCCC3)n2)cc1	-1	-7	-19	-8	1	-0.9	3797
CCC(=O)CCC(=O)c1ccc2ccccc2c1	.	.	-70	.	1	.	2526
CCOC(=O)C=c1sc(=Cc2c(OC)ccc3ccccc23)c(=O)n1CC(=O)NCC1CCCO1 (configuration not stated)	2	10	.	9	.	4.2	.
CNC(=O)CSc1nc2sccc2c(=O)n1-c1ccccc1	2	-3	5	-5	-11	2.7	4630
Cc1ccccc1CN(CC(=O)Nc1cccc([N+](=O)[O-])c1)S(=O)(=O)c1ccc(Cl)cc1	7	0	-12	-33	3	-9.1	2609
COc1cccc(C2/C(=C(/O)c3cnn(-c4ccccc4)c3C)C(=O)C(=O)N2CCN(C)C)c1OC (configuration not stated)	.	.	-1	0	3	-0.6	4656
CSCC[C@H](NC(=O)Nc1ccc(Oc2ccccc2)cc1)C(=O)O	4	-1	-23	3	-2	4.9	4212
NC(=NN=Cc1ccc(O)cc1)c1nonc1N	5	1	.	8	.	7.5	.
O=C1NC(=O)C(=Cc2ccc(Cl)cc2Cl)S1	7	8	-54	93*	.	91*	4060
CCCC(=O)NC(c1ccccc1Cl)c1c(O)ccc2ccccc12 (configuration not stated)	-2	4	1	-3	-1	-3.5	2048
CCN(CC)CCOC(=O)c1ccc(NC(=O)CNC(=O)C2CCCCC2)cc1	3	-23	-2	0	-12	2.7	2162
CN(C)C(=O)c1ccc(Nc2nc(-c3cccs3)nc3ccccc23)cc1	-4	6	-11	-4	7	-5.6	6210
N#Cc1c(SCC(=O)O)nc(-c2ccccc2)c2c1CCCC2	6	8	-13	0	5	9.9	2860
CSc1ccccc1C(=O)NCCOc1ccccc1C	14	9	-11	11	2	4.7	3993
COc1ccccc1NC(=O)COC(=O)c1c[nH]c2ccccc12	-7	6	-14	-12	.	3.7	3821
O=C(OCc1ccc([N+](=O)[O-])cc1)C1CC(=O)N(CCc2ccccc2)C1 (configuration not stated)	-3	-4	10	4	-4	3.1	.
CC(Oc1cccc(Cl)c1)C(=O)Nc1ccc(S(=O)(=O)N(C)C2CCN(C)CC2)cc1 (configuration not stated)	3	0	-1	2	.	1.0	.
CCOc1ccc(NC(=O)NCc2ccccn2)cc1	11	1	-11	2	9	0.7	5364
CC(C)c1nc2sc3c(SCCN(C)C)ncnc3c2c2c1CCC2	22	-6	-6	2	.	-0.3	3559
Cc1csc(NC(=O)c2cnccn2)n1	13	0	-32	-7	14	1.9	?
NC(=O)C1CCN(CCC(=O)Nc2ccc3c(c2)CCC3)CC1	-5	-1	-8	6	-1	-0.5	4213
COc1ccc(CC(=O)NC(C)c2nnc(SCC(=O)c3ccc(Br)cc3)n2C)cc1 (configuration not stated)	10	6	-17	-19	3	5.0	9763
CCCn1c(=O)c2sccc2n2c(CCCC(=O)NCc3cccnc3)nnc12	6	1	-15	6	-4	2.2	5060
Cc1ccc(NC(=S)N2CCN(C3CCCCC3)CC2)cc1	9	9	-10	1	-2	3.2	11124
O=C(O)c1ccc(COc2ccccc2/C=C2\NC(=O)N(Cc3ccccc3F)C2=O)cc1	-20	2	-15	-7	-3	-0.3	4997
O=C(COC(=O)CNC(=O)C12CC3CC(CC(C3)C1)C2)NC1CCS(=O)(=O)C1 (configuration not stated)	10	0	0	-1	-9	2.6	2040
CCCCN1CC(=O)N2C3c4ccccc4OCC3C(c3ccccc3)[C@]2(C)C1=O (some centres not stated)	13	5	.	7	.	9.0	.
CC(c1ccccc1)n1cc(C(=O)NCC2COc3ccccc3O2)nn1 (configuration not stated)	.	.	-14	13	.	4.7	3461
O=C(NCCCn1ccnc1)/C(=C/c1ccco1)NC(=O)c1ccco1	4	4	-5	4	-2	2.0	3090
O=P1(Oc2ccccc2)CC=CC(COCc2ccccc2)O1 (configuration not stated)	-7	-13	.	-3	.	-2.9	.
Cc1ccc(NC2=CC(=O)CC(c3ccccc3)C2)cc1 (configuration not stated)	5	5	-21	0	2	6.3	2717
COCCNC(=O)C1CCN(C(=O)C2CC(=O)N(c3ccc(C)cc3)C2)CC1 (configuration not stated)	-19	-1	2	-1	-16	2.2	4425
CCN(C[C@H]1N[C@@](Cc2ccccc2)(C(=O)OC)[C@H]2C(=O)N(C)C(=O)[C@@H]12)C(=O)c1ccccc1	4	2	47	2	.	4.6	3990
CC1CCCCN1C(=O)CCC(=O)Nc1nnc(C2CCCCC2)s1 (configuration not stated)	3	2	-16	1	0	1.3	4928
COc1ccc(C(CNC(=O)CSc2ccc(Br)cc2)N2CCOCC2)cc1 (configuration not stated)	10	1	-16	-4	-16	6.4	3863
